# Screening data from PubChem.
# 2A firefly – FMDV 2A StopGo reporter, firefly signal | HEK cells with a luciferase reporter of 2A StopGo recoding | Potency, µM (doses to about 57.5 µM), inactives show top-dose signal change, negative = less light | actives 0.23% (n = 120,000) | AID 1745856; active = well fitted falling curve with a large enough effect; inconclusive = small, poorly fitted or top-dose-only effect; inactive = no such curve, though single readings can be large or run the other way; further: nearly all actives have a fitted effect of over 60% in size; overnight with compound
# StopGo RLuc – lowers the Renilla signal of an FMDV 2A StopGo reporter | Potency, µM (titrated, usually from 57.5 µM), for the others: at the highest dose signal change, negative = less light | HEK cells with a luciferase reporter of 2A StopGo recoding | actives 0.32% (n = 120,000); active means well fitted falling curve with a large enough effect; inconclusive means small, poorly fitted or top-dose-only effect; inactive means no such curve, though single readings can be large or run the other way; further: nearly all actives have a fitted effect of over 55% in size; overnight with compound
# Starred values were filed as active, the others as inactive; ? = inconclusive; & = joins results of further samples; ! = repeats disagree; [ ] = another dose, or the depositor's remark. On the % scale 0 is the no-effect control and ±100 the full control effect; potency means the concentration at half of the fitted maximal effect.
# Value order: 2A firefly, StopGo RLuc
- CC(=O)c1ccc(NC(=O)C2CCCN(S(=O)(=O)c3ccc(Br)s3)C2)cc1 (stereo not given)
→ 6.6%, -8.9%
- O=C(CCNS(=O)(=O)c1ccc2c(c1)CCN2C(=O)C1CC1)N1CCN(c2cccc(Cl)c2)CC1
→ -24.5%, -24.4%
- C/C(=C(/OCCOc1ccc(Cl)cc1)c1ccc(Cl)cc1Cl)n1ccnc1
→ -35.6%, -22.6%
- COc1ccc2c(c1)c1c(c(=O)n(-c3ccccc3C)c(=O)n1CC(=O)N1CCCC1)n2C
→ -2.4%, -7.9%
- COc1cc2oc(=O)c(CC(=O)N3CCCCC3)c(C)c2cc1Cl
→ -1.9%, -4.5%
- COc1ccc(C2Nc3ccc(C)cc3[C@H]3OCCC[C@@H]23)cc1Br (stereo not given in full)
→ -19.9%, ?
- Cn1c(=O)c2c(nc(CN3CCN(Cc4ccccc4)CC3)n2Cc2ccccc2)n(C)c1=O
→ -5.3%, -5.8%
- N#CC(C#N)=Cc1ccc(O)c(O)c1
→ 11.3%[11.5 µM], 46.3%[activator]
- CCCCNC(=O)N1CCC(C(=O)O)CC1
→ -3.5%, 8.8%
- Cc1ccc(-c2nc(CN3C(=O)CN=C(c4ccccc4)c4cc(Cl)ccc43)c(C)o2)cc1
→ -18.8%, -11.1%
- COCCn1cc(C(=O)NCCc2ccccc2C)ccc1=O
→ 44.1%[activator], 4.5%
- CCOC(=O)c1c(NC(=O)c2ccc(S(=O)(=O)N3CCCC(C)C3)cc2)sc2c1CC(C)(C)NC2(C)C (stereo not given)
→ -1.9%, 11.2%
- Cc1cccc(C(C)C)c1NC(=O)c1cccs1
→ 6.4%, 1.5%
- Cn1c(=O)c2c(ncn2CC(=O)Nc2c(Cl)cccc2Cl)n(C)c1=O
→ -4.5%, -8.4%
- CCCNc1ncnc2onc(-c3ccccc3C)c12
→ 22.7%, 10.3%
- CCCn1nc(C(=O)Nc2cccc(C(=O)Nc3cccc(C(F)(F)F)c3)c2)c2ccccc2c1=O
→ 13.9%, 9.4%
- Cc1ccc(S(=O)(=O)NCC(=O)OCc2coc(-c3cccs3)n2)cc1C
→ 12.9%, -12.7%
- COc1ccc2ncc3c(-c4ccc(C)c(C)c4)nn(CC(=O)NC4CCCC4)c3c2c1
→ -0.3%, -8.7%
- CC(NC(=O)c1cc(C2CC2)nc2ccccc12)C1CC1 (stereo not given)
→ 9.6%, 38.4%[activator]
- CC(C)=CCCC(C)[N+]1(C)CCCCC1 (stereo not given)
→ -2.2%, -11.5%
- O=C(COc1ccc(F)cc1)Nc1ccc2nc(SCC(=O)N3CCCC3)sc2c1
→ 0.7%, -13.5%
- Cc1cccc(CSc2nnc(C3CCN(C(=O)OC(C)(C)C)CC3)o2)c1
→ 11.3%, 6.3%
- Cc1ccc(NC(=O)Nc2ccccc2OCc2cc(=O)n3ccccc3n2)c(Cl)c1
→ -5.9%, -7.1%
- Cn1c(=O)c2c(nc(N3CCN(C(=O)c4ccccc4F)CC3)n2Cc2ccccc2)n(C)c1=O
→ 5.5%, -1.8%
- COc1ccc2nc(N(Cc3cccnc3)C(=O)COc3ccccc3)sc2c1
→ 33.1%[activator], 68.2%[activator]
- CN(C)c1nc(N2CCCCCC2)nc(-n2cnc(SCc3ccccc3)n2)n1
→ 8.4%, 2.6%
- CCOC(=O)N1CCc2c(sc3c2c(=O)n(CCc2ccccc2)c(=O)n3CC(=O)Nc2ccc(C)cc2)C1
→ 8.1%, -5.8%
- Cc1ccc(Cl)cc1NC(=O)Cn1nc2c(cc1=O)CC(C)CC2 (stereo not given)
→ -16.4%, 0.7%
- Cc1ccc(NS(=O)(=O)c2ccc3c(c2)N(C)C(=O)CC(=O)N3C)cc1Cl
→ 12.7%, 207.7%[activator]
- Fc1ccc(NC(=S)NCCC(c2ccccc2)c2ccccc2)cc1Cl
→ ?, 69.0%[activator]
- N#Cc1ccc(Oc2cccc3cccnc23)cc1C#N
→ 22.8%, 1.7%
- CCc1ccc2oc(-c3ccc(NC(=O)c4cccc(Cl)c4Cl)cc3)nc2c1
→ 13.9%, -7.3%
- Cc1ccc(CN(C)C(=O)c2n[nH]c(=O)c3ccccc23)o1
→ ?, 0.0%
- Cc1cc(=O)c(C(=O)Nc2nnc(C(C)C)s2)nn1-c1ccc(Cl)cc1
→ 7.6%, 5.8%
- COc1ccccc1-c1nc(C#N)c(NCc2ccccc2)o1
→ 0.0%, 0.0%
- Cc1ccc(-c2onc3ccc(-c4cc(C(=O)O)c5cc(Br)ccc5n4)cc23)cc1
→ 12.4%, 18.1%
- CCCN(Cc1cccs1)C(=O)Nc1cc(OC)c(OC)c(OC)c1
→ -12.6%, -17.6%
- O=C(O)CN(CC(=O)O)c1ccccc1
→ -11.9%, 3.6%
- CCOc1cc(C(=O)Nc2ccc(OC)c(OC)c2)nc2ccc(Cl)cc12
→ -8.9%, -14.1%
- COCCCNC(=O)CCC(=O)NCCCOC
→ -11.5%, -8.8%
- CCOc1ccccc1NC(=O)c1ccc(F)c(S(=O)(=O)N2CCN(c3ccc(F)cc3)CC2)c1
→ 5.4%, 16.7%
- CCCNC(=O)c1ccc(-c2nc(CS(=O)(=O)c3ccc(C)cc3)c(C)o2)cc1
→ -11.7%, -5.0%
- CCCCC(=O)Nc1cccc(C(=O)OCc2cc(=O)n3nc(CCCC)sc3n2)c1
→ -4.8%, -9.8%
- CCOC(=O)c1c(COc2cccnc2[N+](=O)[O-])nc2ccccc2c1C
→ -11.3%, -14.4%
- CC1CCN(Cc2ccc(CNC(=O)c3cnn(-c4ccccc4)c3)cc2)CC1
→ -2.5%, -3.4%

# As a working copy, part of the list above.
# Value order: 2A firefly, StopGo RLuc
- CCOC(=O)c1c(COc2cccnc2[N+](=O)[O-])nc2ccccc2c1C
→ -11.3%, -14.4%
- CC1CCN(Cc2ccc(CNC(=O)c3cnn(-c4ccccc4)c3)cc2)CC1
→ -2.5%, -3.4%

# New compounds follow
# Value order: 2A firefly, StopGo RLuc
- COc1cc2cc(C(=O)NCCCN(C)C)[nH]c2cc1OC
→ 6.3%, 7.8%
- CCOc1ccc(NC(=O)Cn2c(=O)n(CC(=O)NCCc3ccccc3)c(=O)c3sccc32)cc1
→ 0.0%, 0.0%
- Cc1ccc(Cl)cc1-n1ncc2c(NC3CCCCC3)ncnc21
→ ?, 25.1µM*!
- CCCCCn1c(N2CCN(c3ccccc3)CC2)nc2c1c(=O)[nH]c(=O)n2C
→ -14.8%, -15.5%
- COc1ccc(C)cc1NC(=O)c1nnn(CC(=O)Nc2c(C)cccc2C)c1N
→ -8.9%, 1.6%
- Cc1ccc(C2CC(=O)Nc3cc4c(cc32)OCCO4)cc1 (stereo not given)
→ 12.0%, 4.2%
- CC(C)c1ccc(S(=O)(=O)N2CCN(Cn3ncc4ccccc4c3=O)CC2)cc1
→ 1.5%, -10.7%
- O=C(NC1CCCCCCC1)C1(c2ccccc2)CCC1
→ -4.8%, -2.6%
- COc1ccccc1CNC(=O)CCS(=O)(=O)c1ccc2c(c1)oc(=O)n2C
→ -15.9%, -8.0%
- CC(C)c1cccc(NC(=O)Cc2n[nH]c(=O)c3ccccc23)c1
→ 0.0%, ?
- O=C1NC2(CCN(C(=O)NC3CCCC3)CC2)Oc2ccccc21
→ -1.8%, -5.1%
- O=C(CN1C(=O)CCSc2ccc(S(=O)(=O)N3CCCC3)cc21)Nc1ccccc1Cl
→ -11.0%, -9.9%
- CCCCCCCOc1ccc(OC(=O)c2ccc(OCCCCCC)cc2)cc1
→ -2.8%, -0.8%
- CC1CCC(C(=O)NC(C(=O)OCC(=O)c2ccc(Br)cc2)C(C)C)CC1 (stereo not given)
→ -17.4%, -11.2%
- COc1cc(C(c2c(C)[nH][nH]c2=O)c2c(C)[nH][nH]c2=O)ccc1OC(=O)c1ccccc1OC
→ -13.0%, -5.3%
- O=C(OCC(=O)C1CCCCC1)/C(=C/c1ccccc1)c1cccs1
→ 40.3%[activator], 14.8%
- CN(C)C(=O)C1CN(C(=O)CCc2ncc(-c3ccc(F)cc3)o2)c2ccccc2O1 (stereo not given)
→ 5.4%, -9.4%
- O=C(c1cnc(N2CCOCC2)c2ccccc12)N1CCN(Cc2ccccc2)CC1
→ ?, -15.7%
- Cc1ccc(NC(=O)C2CCCN(S(=O)(=O)c3cccc4cccnc34)C2)c(Br)c1 (stereo not given)
→ -8.7%, 39.2%[activator]
- CSc1ccccc1NC(=O)c1ccc(F)cc1
→ 62.8%[activator], 15.5%
- CCOc1ccc(C(c2c(O)cc(C)n(CCOC)c2=O)N2CCC(C)CC2)cc1 (stereo not given)
→ 12.3%, 7.3%
- N#CC1=C(SCc2ccc(Br)cc2)NC(=O)C(C#N)C12CCCCC2 (stereo not given)
→ ?, ?
- COc1ccc(CCNC(=O)CSc2nc(-c3ccc(Cl)cc3)nc3cc(=O)[nH]n23)cc1OC
→ 7.6%, 4.2%
- COc1ccc(C(=O)Nc2ccc(-n3nncc3-c3ccc(OC)c(OC)c3)cc2)cc1
→ -13.3%, -8.9%
- Cc1ccc(-c2nc(-c3cc4cccc(OCc5cccc(F)c5)c4oc3=O)no2)cc1
→ -13.6%, -4.9%
- CCCCNC(=S)Nc1cc(C)ccc1F
→ 0.0%, 85.6%[activator]
- CCOC(=O)c1ccc(N2C(=O)c3n[nH]c(-c4cccs4)c3C2c2ccc(C(C)(C)C)cc2)cc1 (stereo not given)
→ -3.6%, -7.9%
- CC(C)c1nn2c(=O)cc(COC(=O)c3ccc(NC(=O)c4ccccc4Cl)cc3)nc2s1
→ 4.9%, 1.5%
- O=[N+]([O-])c1cnc2ccc(Br)cc2c1N1CCN(CCO)CC1
→ -0.2%, -11.9%
- COc1ccccc1NS(=O)(=O)c1cc(-c2c(C)nn3c2NC(=O)CCC3=O)ccc1C
→ -9.1%, 28.9%

# Further structures follow:
SMILES | 2A firefly | StopGo RLuc
CCCC(C(=O)Nc1cc(C)c(Cl)cc1OC)N1Cc2ccccc2C1=O (stereo not given) | -22.9% | ?
CC(C)CC(NC(=O)OC(C)(C)C)C(=O)O (stereo not given) | 3.6% | 2.1%
Cc1ccc(-c2noc(-c3ccc(N4CCC(C)CC4)c([N+](=O)[O-])c3)n2)cc1 | 12.2% | -1.4%
O=C(NC(Cc1ccccc1)C(=O)NCc1cccs1)c1ccco1 (stereo not given) | 12.6% | 54.3%[activator]
C=CCCCOc1ccc(/C=C/C(=O)c2ccc(OCCCCC)cc2)cc1 | 6.2% | 6.4%
CCOc1ccc(C(c2c(O)cc(C)n(Cc3ccco3)c2=O)N2CCN(C)CC2)cc1 (stereo not given) | -28.9% | 22.2%
CCOCc1ccccc1CNC(=O)c1ccc2c(c1)NC(=O)CS2 | 38.5%[activator] | -3.8%[1.06 µM]
O=C(c1cc(-c2ccc(F)cc2)n[nH]1)N1CCN(c2ncccn2)CC1 | 19.4% | 1.0%
CCCCNC(=S)Nc1cccc(C)c1 | 0.0% | 180.5%[activator]
CCNC(=S)N/N=C/c1ccc(Cl)c(Cl)c1 | 0.0% | -0.1%
COC(=O)C1CN(Cc2ccc(F)cc2)CCS(=O)(=O)N1Cc1ccc(F)cc1 (stereo not given) | 2.4% | 0.0%
CC(C)c1ccc2oc(-c3cc(N)ccc3O)nc2c1 | 61.4%&7.1%[activator] | 19.4%&14.8%
CC(OC(=O)c1nn(-c2ccccc2)c(=O)c2ccccc12)C(=O)N1CCCCCC1 (stereo not given) | 0.0% | 39.8%[activator]
Cc1cccc(CNC(=O)C2CCCN(S(=O)(=O)c3cn(C)cn3)C2)c1 (stereo not given) | -18.5% | -4.2%
COc1ccc(-c2nc3scc(CCNS(=O)(=O)c4cccs4)n3n2)cc1 | -8.5% | 48.9%[activator]
Cc1ccc(-c2onc(C)c2C)cc1S(=O)(=O)NC1CCC(C)CC1 (stereo not given) | 4.8% | 294.5%[activator]
O=C(CCCCn1c(=O)c2ccccc2n(Cc2cccc(Cl)c2)c1=O)NCc1ccc2c(c1)OCO2 | -6.1% | 3.6%
COc1ccc(-n2ncc(C(=O)N3CCc4ccccc4C3)c2C2CCN(C(=O)OC(C)(C)C)CC2)cc1 | -21.8% | -13.3%
COc1ccccc1N(CC(=O)NCCSCc1cccc(Cl)c1)S(C)(=O)=O | -22.3% | 1.9%
CCCCS(=O)C1CCCCC1OC(=O)c1ccccc1 (stereo not given) | -4.2% | 34.2%[activator]
CC(=O)Nc1ccc(NC(=O)c2csnn2)cc1 | 37.2%[activator] | -4.2%
CCN(C(=O)CCNC(=O)c1cccc(C)c1)C12CC3CC(CC(C3)C1)C2 | -28.6% | 15.0%
COc1ccc(S(=O)(=O)Nc2nc3ccccc3nc2NCCC(C)C)cc1 | 2.7% | 0.0%
O=c1oc2ccccc2cc1-c1nc(-c2ccccc2Cl)no1 | 57.1%[activator] | 0.9%

# Shown field by field: entries from further up
> COc1ccc2c(c1)c1c(c(=O)n(-c3ccccc3C)c(=O)n1CC(=O)N1CCCC1)n2C
  2A firefly = -2.4%	StopGo RLuc = -7.9%
> COc1cc2oc(=O)c(CC(=O)N3CCCCC3)c(C)c2cc1Cl
  2A firefly = -1.9%	StopGo RLuc = -4.5%
> COc1ccc(C2Nc3ccc(C)cc3[C@H]3OCCC[C@@H]23)cc1Br (stereo not given in full)
  2A firefly = -19.9%	StopGo RLuc = ?

# (listing goes on)
SMILES | 2A firefly | StopGo RLuc
C=CCN(CC=C)C(=O)c1cc(-c2ccc(OC)cc2)nc2ccccc12 | -8.3% | 13.7%
Cc1cc(C)c(/C=C/C(=O)c2cc3ccccc3o2)c(C)c1 | 39.9%[activator] | 14.5%
CCN(c1ccc(NC(=O)COC(=O)c2cc3ccccc3oc2=O)cc1)C(C)C | 0.0% | 16.5%
CCOC(=O)NNC(=O)C1CCC(C)CC1 (stereo not given) | -6.4% | -1.0%

# A portion of the library; count on the stated rates, not on these rows.
